# Screens from PubChem BioAssay.
# VDR inhibitor – inhibitors of human vitamin D receptor; AID 504847; VDR-SRC2-3 peptide fluorescence polarization, 2 h; Potency, µM, for inactives: max response, negative = inhibition, most hits filed as inhibitors; actives 0.93% (n = 400,000); active = well fitted inhibition curve with a large enough effect; inconclusive = small, poorly fitted or top-dose-only effect, or another doubt; inactive = no such curve, though single readings can be large or run the other way; also: series mostly up to about 120 µM
# Target sequence (P11473 whole entry, looked up): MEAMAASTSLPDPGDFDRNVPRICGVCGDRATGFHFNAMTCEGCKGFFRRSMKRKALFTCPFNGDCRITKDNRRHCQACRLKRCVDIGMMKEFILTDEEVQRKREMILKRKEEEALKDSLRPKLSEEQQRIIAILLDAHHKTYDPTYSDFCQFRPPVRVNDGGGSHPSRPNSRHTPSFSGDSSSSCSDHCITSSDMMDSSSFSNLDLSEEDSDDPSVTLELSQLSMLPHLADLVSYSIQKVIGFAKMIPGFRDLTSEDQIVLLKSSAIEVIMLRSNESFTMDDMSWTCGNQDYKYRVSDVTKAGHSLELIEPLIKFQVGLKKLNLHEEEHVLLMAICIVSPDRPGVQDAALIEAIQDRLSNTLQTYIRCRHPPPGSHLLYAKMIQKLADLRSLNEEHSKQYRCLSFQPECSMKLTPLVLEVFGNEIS
#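 Measured by FP: displacement of SRC2-3 coactivator peptide from VDR by library compounds, following a two-hour ambient incubation.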
# Active calls of the source: *; ? = inconclusive; & = joins results of further samples. % is scaled to controls: 0 for no effect and ±100 for the full control effect; potency is read from the fitted curve at half-maximal effect. Some of the compounds tested. The share of hits here may be higher or lower than overall.
VDR inhibitor | compound
4% | CCOc1ccc(C(=O)Nc2c(C(=O)Nc3ccccc3F)oc3ccccc23)cc1OCC
-6% | CCOc1ccccc1NC(=O)c1c(NC(=O)c2cccc(C)c2)sc2c1CCC2
-3% | COc1cccc2[nH]c3c(N4CCC(C(N)=O)CC4)ncnc3c12
0% | COc1ccc(OC2C(=O)N(CCc3ccc(OC)c(OC)c3)C2c2ccc3c(c2)OCO3)cc1 (centres undefined)
-6% | CC(=NNc1nc2ccccc2s1)c1ccncn1
6% | CCc1ccccc1Nc1nc2cc(Cl)c(Cl)cc2nc1-n1nc(C)cc1C
-23% | COc1ccc(NC(=O)/C=C/c2ccccc2)cn1
-16% | CC(=O)O[C@H]1C(=O)[C@@]2(C)[C@H]([C@H](OC(=O)c3ccccc3)[C@]3(O)C[C@H](OC(=O)[C@H](O)C(NC(=O)c4ccccc4)c4ccccc4)C(C)=C1C3(C)C)[C@]1(OC(C)=O)CO[C@@H]1C[C@@H]2O (some centres undefined)
-11% | Cc1ccc(C(c2nnnn2Cc2cccs2)N2CCN(Cc3ccc4c(c3)OCO4)CC2)cc1 (centres undefined)
-15% | CCCc1nnc(SCC(=O)N2CCOCC2)n1CCCOC
-8% | COc1cccc(OCc2cc(C(=O)N3CCN(C(=O)c4ccco4)CC3)no2)c1
8% | CCOC(=O)CSc1nnc(NC(=O)CCc2ccccc2)s1
? | O=C(CSc1nnc(NC(=O)C2CC2)s1)Nc1ccc2c(c1)OCCO2
5% | Cc1ccc(-c2csc(Nc3ccccn3)n2)cc1
-3% | CCc1ccccc1NC(=O)Cn1c(=O)ccc2cc(S(=O)(=O)N3CCCC3)ccc21
9% | COc1ccc(NC(=O)N2Cc3ccccc3CC2C(=O)NC(C)(C)C)cc1 (centres undefined)
-3% | CCOc1ccccc1NS(=O)(=O)c1cc2c3c(c1)CC(=O)N3CCC2
12% | COc1ccccc1NC(=O)COC(=O)C1CC1
-3% | O=C(COc1ccc2c3c(c(=O)oc2c1)CCC3)NCC1CCC(C(=O)O)CC1 (centres undefined)
-21% | O=C1OC(c2ccccc2)(c2ccc3cc(O)ccc3c2)c2ccccc21 (centres undefined)
1% | N#Cc1c(SCC(=O)OCc2ccccc2)nsc1SCC(=O)OCc1ccccc1
-7% | COc1cc2c(cc1OC)C(C(=O)N1CCOCC1)C(c1cccs1)N(C)C2=O (centres undefined)
11% | CCc1c(C)c2cc3c(c(C)c2oc1=O)OCN(CCc1ccccc1F)C3
5% | Oc1ccc(N2CCN(C(c3ccncc3)c3nnnn3C3CCCC3)CC2)cc1 (centres undefined)
20% | Cc1ccc(N(C(=O)Cc2cccs2)C(C(=O)NC2CCCCC2)c2ccccn2)cc1C (centres undefined)
-4% | CN(CC(=O)Nc1ccc(N2CCOCC2)cc1)C(=O)c1cc(F)c(F)cc1Cl
-6% | COc1ccc(NC(=O)c2ccc3c(SCC(=O)O)c4c(nc3c2)CCCC4)cc1OC
-3% | C=C(C(C)=O)C(O)c1ccccc1 (centres undefined)
3% | COC(=O)C1C(=O)OC(C)(C)C1C(C)C(=O)c1ccccc1 (centres undefined)
4% | COc1ccc(NS(=O)(=O)c2ccc3c(c2)N(C(C)=O)CCS3)cc1
15% | COC(=O)CSc1nc2c(c(-c3ccc(C)o3)c1C#N)CCCC2
-8% | Cc1ccc(NC(=O)/C(C#N)=C/c2ccc(-c3ccc(Cl)c(C(=O)O)c3)o2)cc1C
-14% | Cc1cccc(C(=O)NCCC(=O)Nc2nc(C)c(Cc3ccc4c(c3)OCO4)s2)c1
-17% | O=C(CSc1ccsc1[N+](=O)[O-])NCc1ccccc1
-6% | COC(=O)C1=C(C)N(C(C)C)C(=O)C1(NC(C)=O)C(F)(F)F (centres undefined)
-10% | COc1ccc(NC(=O)c2oc3ccccc3c2NC(=O)c2cc(=O)c3cc(Cl)ccc3o2)cc1
7% | CCOc1ccc(NC(=O)c2sccc2-n2cccc2)cc1
-28% | O=[N+]([O-])c1cc([N+](=O)[O-])c2oc(-c3ccccc3)c(Br)c2c1O
0% | COc1cccc(/C=C/C(=O)Nc2ccc(N3CCOCC3)cc2)c1OC
5%&-4% | CCOc1ccc(NC(=O)CCNS(=O)(=O)c2cccc3nonc23)cc1
12% | CC(=O)c1c(C)oc2ccc(NS(=O)(=O)c3ccc(C(=O)O)cc3)cc12
-7% | O=C(Nc1ccc(S(=O)(=O)Nc2nccs2)cc1)c1cc(-c2ccccn2)nc2ccccc12
22% | COc1ccccc1-c1ccc2nnc(SC)n2n1
-5% | COc1ccccc1C(=O)CC1(O)C(=O)N(CC(N)=O)c2ccccc21 (centres undefined)
13% | CCOc1ccc(OCC)c(NC(=O)c2cnc3c(-c4ccccc4)c(C)nn3c2C)c1
-4% | O=C(Nc1ccccc1[N+](=O)[O-])C1=C(O)CCn2c1nc1ccccc12
-5% | O=C(Cc1cccc(NC(=O)C2CCN(S(=O)(=O)c3cccc([N+](=O)[O-])c3)CC2)c1)Nc1cccc(C(=O)N2CCOCC2)c1
1% | Cc1sc2nc(CSc3ccc([N+](=O)[O-])c(C(F)(F)F)c3)[nH]c(=O)c2c1C
9% | CCN(Cc1cc2ccccc2[nH]c1=O)S(=O)(=O)c1ccccc1
-6% | CCN1CCN(C(=O)c2cc3cc(F)ccc3[nH]2)CC1

# An excerpt from above in order of number of heavy atoms, low to high:
VDR inhibitor | compound
9% | CCN(Cc1cc2ccccc2[nH]c1=O)S(=O)(=O)c1ccccc1
-5% | COc1ccccc1C(=O)CC1(O)C(=O)N(CC(N)=O)c2ccccc21 (centres undefined)
13% | CCOc1ccc(OCC)c(NC(=O)c2cnc3c(-c4ccccc4)c(C)nn3c2C)c1

# (further entries)
VDR inhibitor | compound
-15% | Cc1ccc(C(=O)COC(=O)c2cc(C)no2)c(C)c1
3% | Cc1ccc(C(=O)OC(C(=O)Nc2ccc(Cl)cc2C(F)(F)F)c2ccccc2)cc1 (centres undefined)
-10% | CCCCNC(=O)C1(c2ccc(OC)cc2)CCOCC1
-7%&13% | CCCCN(CCCC)CCNC(=O)CN1C(=O)CSc2ccc(S(=O)(=O)N3CCOCC3)cc21
4% | O=C(C1=C[C@@H](c2ccccc2)C[C@@H](OCCCCO)O1)N1CCOCC1
0% | Clc1cccc(Cl)c1OCCOCCNCc1ccccc1
-1% | COc1ccc(-c2nc3cnc(N4CCNCC4)nc3n(C3CC3)c2=O)cc1
2% | CC1CCN(CCCNC(=O)CN2CCN(Cc3ccc(Cl)cc3)C2=O)CC1
-10% | COCCN1C(=O)N[C@@H](CCc2ccccc2)[C@H](C(C)=O)[C@H]1C
-1% | COc1cccc(NC(=O)CN2C(=O)NC(C)(c3ccc(C)cc3)C2=O)c1 (centres undefined)
-10% | CC(C)N(C(=O)c1sc2cc([N+](=O)[O-])ccc2c1Cl)C(C)C
16% | Cc1cc(CNC(=O)Nc2ccc3c(c2)OCO3)nn1C
0% | Cn1c(SCC(=O)OC2CCCCC2)nnc1-c1ccc(S(=O)(=O)N2CCCC2)cc1
-4% | CCS(=O)(=O)c1ccc(-c2csc(-c3ccc(Cl)cc3)n2)c(Cl)c1Cl
3% | CCOC(=O)c1csc(NC(=O)C2=COCCO2)n1
-19% | COc1ccc(CN=C(Nc2ccccc2)SC2CC(=O)NC2=O)cc1 (centres undefined)
-11% | COC(=O)C1=C(C)N(Cc2ccccc2)C(=NCc2ccc(OC)cc2)N[C@H]1c1ccccc1
14% | O=C(Nc1ccccc1Cl)c1cc[n+]([O-])cc1
-19% | CCC(CC)C(=O)N1CCN(c2cccc(C)c2C)CC1
-2% | Cc1cccc(NC(=O)C2CCN(S(=O)(=O)c3cccc4nonc34)CC2)c1
3% | CCc1nnc2c(NCc3ccccc3)nc3ccccc3n12
-4% | CCC(c1nnnn1CCc1ccccc1)N(Cc1ccco1)Cc1cc2c(C)ccc(C)c2[nH]c1=O (centres undefined)
-14% | Cc1cc(C)cc(NC(=O)C(Nc2ccccc2)c2ccccc2)c1 (centres undefined)
-19% | CCOC(=O)c1c(NC(=O)C(C)Sc2c[nH]c3ccccc23)sc2c1CCC2 (centres undefined)
? | Cc1ccc(NC(=S)NCC23C=CC(O2)C2C(=O)N(c4ccc(C)cc4)C(=O)C23)cc1 (centres undefined)
14% | O=C(O)C1C2C=CC(C2)C1C(=O)NCCCc1ccccc1 (centres undefined)
-2% | O=S(=O)(c1ccc2ccccc2c1)N1CCCCC1
17% | CS(=O)(=O)N1N=C(c2ccccc2)CC1c1ccc2nccnc2c1 (centres undefined)
-15% | Cc1ccc(S(=O)(=O)N(C)C)cc1NC(=O)CCc1ccccc1
-1% | O=C(NNc1cc(Cl)cc(Cl)c1)C1CCC1
1%&-16% | CC1(C)C=Cc2cc3ccc(=O)oc3cc2O1
-2% | Cc1cccc(N2CCN(Cc3nc(-c4cccc(Oc5ccccc5)c4)oc3C)CC2)n1
-8% | C=CCn1c(SCCN2C(=O)c3ccccc3C2=O)nc2scc(-c3ccccc3)c2c1=O
-4% | COc1ccc(CN(C)CC(=O)Nc2ccccc2C(=O)NC2CC2)cc1
-7% | O=C(N/N=C/c1ccc2ncccc2c1)c1cc(-c2cccs2)nc2ccccc12
7% | Cc1ccc(NC(=O)CN2C(=O)COc3ccc(S(=O)(=O)N4CCOCC4)cc32)c(Cl)c1
6% | Cc1ccc(NC(=S)NC2CCCC2)cc1C
29% | CC1CCN(CCOCCOc2ccc(Cl)cc2Br)CC1
0% | Cc1ccc(CN2C(=O)c3oc4ccc(C)cc4c(=O)c3C2c2ccc(O)cc2)cc1 (centres undefined)
-5% | COc1ccccc1NS(=O)(=O)c1cccc(C(=O)OCC(=O)Nc2cc(C)on2)c1
-24% | Cc1ccccc1NC(=O)C1CCN(S(=O)(=O)c2c(C)noc2/C=C/c2ccco2)CC1
23% | CCOc1ccc(NC(=O)c2ccc3c(c2)c(C)c(C)n3Cc2ccc(F)cc2)cc1
-12% | CN1CCCN(S(=O)(=O)c2ccccc2)c2nc3ccccc3nc21
-34% | CCOc1ccc2nc(NC(=O)CC3Oc4ccccc4NC3=O)sc2c1 (centres undefined)
9% | COC(=O)c1sccc1Oc1c(Cl)cccc1[N+](=O)[O-]
-15% | O=C1NC2(CCCCC2)C(=O)N1c1ccc(Cl)cc1
-14%&-8%&-14%&-8% | COc1ccccc1OCC(O)CN1CCN(CC(=O)Nc2c(C)cccc2C)CC1 (centres undefined)
-1% | NC(=O)NC(CC(=O)NCCCc1ccccc1)c1ccc(Cl)cc1 (centres undefined)
? | Cc1ccc(S(=O)(=O)N/N=C2/CCCCC2C2CCCCC2)cc1[N+](=O)[O-] (centres undefined)
6% | COc1ccc(-n2c(SCC(=O)NCc3ccc(C)cc3)nc3n[nH]c(C)c3c2=N)cc1

# Three compounds picked at random from those above:
VDR inhibitor | compound
-14%&-8%&-14%&-8% | COc1ccccc1OCC(O)CN1CCN(CC(=O)Nc2c(C)cccc2C)CC1 (centres undefined)
9% | COC(=O)c1sccc1Oc1c(Cl)cccc1[N+](=O)[O-]
-34% | CCOc1ccc2nc(NC(=O)CC3Oc4ccccc4NC3=O)sc2c1 (centres undefined)

# Remaining list, next part
VDR inhibitor | compound
8% | CC1CC(C)CN(CCCNC(=O)c2ccc3c(c2)N(Cc2ccccc2)C(=O)c2ccccc2S3=O)C1 (centres undefined)
-3% | COc1ccccc1NC(=O)Nc1ccc(C)cn1
-5% | CNC(=O)c1ccccc1S(=O)(=O)c1ccccc1C#N
3% | COc1ccc(C(=O)NC2CC2)cc1OC1CCN(Cc2ccc(SC)cc2)CC1
10% | CC1CCN(S(=O)(=O)c2cc(Br)cc(C(=O)NC3=NCCS3)c2)CC1
-20% | COc1ccc(CC(=O)Nc2sc3c(c2C(=O)Nc2c(C)cccc2C)CCCCC3)cc1
-11% | CCC(C)C(NC(=O)C(CC(C)C)NC(=O)C(CO)NC(=O)C1CCC(=O)N1)C(=O)OC (centres undefined)
20% | Cn1cc([C@@H]2C[C@H]3CN(Cc4cccc(Cl)c4)C(=O)[C@]34CCCN24)c2ccccc21
2% | CN(NC(=O)C(C)(C)C)c1nc(-c2ccccc2)nnc1C(F)(F)F
-3% | CC(C)(C)c1csc(NNC(=O)c2ccc(Cl)cc2)n1
-2% | CCN(C(=O)c1cc(Cl)ccc1Cl)C1CCS(=O)(=O)C1 (centres undefined)
-17% | CCOC(=O)c1c(NC(C)=O)sc2c(OC)c(Br)ccc12
-3% | CC(C)OC(=O)C(C#N)c1nc2ccccc2nc1N1CCCC1 (centres undefined)
0% | CC(Sc1nc2ccccc2c(=O)[nH]1)C(=O)O (centres undefined)
13% | CCOc1ccc(C2C(C#N)=C(N)Oc3cc(C)n(CCN(C)C)c(=O)c32)cc1OCC (centres undefined)
-22% | Cc1ccc(C(=O)Nc2cccc3cccnc23)cc1Cl
-9% | CN(CC(O)Cn1cnc2c1c(=O)n(C)c(=O)n2C)c1ccccc1 (centres undefined)
-1% | Cc1cc(O)ccc1N=Cc1c(C(F)(F)F)[nH][nH]c1=O
-15% | Cc1cc(NC(=O)CN2CCN(c3cccc(Cl)c3)CC2)no1
26% | Nc1nc(N2CCN(c3ccc(F)cc3)CC2)n[nH]1
-6% | COc1ccc([C@@H]2CC=C(C(=O)O)[C@H](c3ccccc3F)N2S(=O)(=O)c2ccc(C)cc2)cc1OC

# Some of the entries so far, as labelled records.
> Nc1nc(N2CCN(c3ccc(F)cc3)CC2)n[nH]1
  VDR inhibitor: 26%

> CC(Sc1nc2ccccc2c(=O)[nH]1)C(=O)O (centres undefined)
  VDR inhibitor: 0%

# Individual results from the entries so far:
# `CCOc1ccc(C2C(C#N)=C(N)Oc3cc(C)n(CCN(C)C)c(=O)c32)cc1OCC` (centres undefined) in VDR inhibitor shows 13%
# `CC(Sc1nc2ccccc2c(=O)[nH]1)C(=O)O` (centres undefined) in VDR inhibitor shows 0%
# `Cc1ccc(C(=O)Nc2cccc3cccnc23)cc1Cl` in VDR inhibitor shows -22%
